# Screens: PubChem, National Center for Advancing Translational Sciences (NCATS)
# HSD17B inhib – blocks hydroxysteroid 17-beta dehydrogenase activity. recombinant HSD17B10, NADH fluorescence kinetic; many of its hits are not listed in these tables. Potency, µM (doses to about 57.1 µM), without a hit: top-dose activity change, negative = inhibition, actives largely listed as inhibitors. 75,000 compounds, 7.6% hits. AID 893; active = well fitted inhibition curve with a large enough effect; inconclusive = small, poorly fitted or top-dose-only effect; inactive = no such curve, though single readings can be large or run the other way;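 note: the protocol describes HADH2 (HSD17B10) and not the HSD17B4 of the title; nearly all actives have a fitted effect of over 70% in size; most hits overshoot -100% by far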
#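 Activity followed as NADH fluorescence increase (ex 360, em 450 nm) every 30 seconds for 4 min, using final 90 uM beta-hydroxybutyryl CoA and 1 mM NAD+. Recombinant His-tagged enzyme, 20 nM, pH 9.0 Tris buffer, 15 min compound preincubation.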
# Starred values were filed as active, the others as inactive; ? = inconclusive; [ ] = remark or other dose. % is set by controls: 0 for no effect and ±100 for the full control effect; potency is the fitted concentration of half-maximal effect. These rows are one share of the data; count on the stated rates, not on these rows.
SMILES,HSD17B inhib
Cc1ccc(S(=O)(=O)N2CCN(C(=O)N3CCOCC3)C2C(C)C)cc1 (centres undefined),4.5%
CC1(C)CC(=O)C(C(c2cccc(O)c2O)C2C(=O)CC(C)(C)CC2=O)C(=O)C1,2.2%[11.4 µM]
CC(=O)NCCOc1cccc(OCCNC(C)=O)c1,6.1%
CNc1ncnc2ccc(-c3ccccc3C)cc12,-4.2%
Cn1c(=O)[nH]c(=O)c2c1nc(NCCCO)n2CCCc1ccccc1,10.6%
CN(CCCn1c(=S)[nH]c2ncccc2c1=O)Cc1ccccc1,1.0%
CS(=O)(=O)N1CCN(C(=O)c2ccccc2)C1,-3.0%
N=C(N)N1CCc2ccccc2C1,2.1%[25.6 µM]
CCCCN1CCC(CCC(=O)c2cc(Cl)c(N)cc2OC)CC1,4.6%
O=C(COC(=O)Cc1cccs1)Nc1ccccc1,-4.7%
COc1ccc2nnc(-c3ccccc3)n2n1,?
CCC1(c2ccc(F)cc2)NC(=O)N(CC(=O)N2CCOCC2)C1=O (centres undefined),5.2%
CCOC(=O)c1sc2cccc(F)c2c1N,31.6µM*
COc1cc(-c2nnc(-c3ccc(N4CCOCC4)cc3)o2)cc(OC)c1OC,10µM*
OCCN1CCN(CC#CCn2c3ccccc3c3ccccc32)CC1,-1.0%
CCN(C1CCCCC1)S(=O)(=O)c1ccc(S(=O)(=O)NCc2ccncc2)cc1,4.9%
COc1ccc(C2C(C(=O)Nc3cc(C)on3)c3ccccc3C(=O)N2C)cc1 (centres undefined),-11.5%
O=C(Nc1nccs1)C1CCCN(S(=O)(=O)c2cccc3cccnc23)C1 (centres undefined),2.5%
CS(=O)(=O)Nc1cccc(-c2ccc3ncnc(Nc4ccccc4)c3c2)c1,1.1%
O=C1C(=O)N(CCCn2ccnc2)C(c2cccnc2)/C1=C(/O)c1ccc(Br)cc1 (centres undefined),2.5%
c1ccc2cc3[nH]c(CN4CCCCC4)nc3cc2c1,?
COc1ccc(CCNc2oc(-c3ccccc3OC)nc2C#N)cc1,31.6µM*
CCc1nnc(NC(=O)CSc2nc(-c3ccc(OC)cc3)ns2)s1,2.0%
O=C(c1ccc(COc2ccccc2Cl)o1)N1CCN(c2ccccc2)CC1,1.5%
Cn1c(SC2=CS(=O)(=O)c3ccccc32)nc2ccccc21,-3.4%
# The list continues:
SMILES,HSD17B inhib
O=C(CCN1CCOCC1)Nc1c(-c2ccccc2)c2cc(Br)ccc2[nH]c1=O,2.0%
COc1ccc(C2CC(c3ccc(Cl)cc3Cl)n3nc(N)nc3N2)cc1 (centres undefined),1.2%
CCCC(=O)Nc1ccc2c(c1)nc1n2CCSC1,-11.2%
Cc1cc(C)nc(-n2nc(C)cc2NC(=O)c2ccc(Br)o2)n1,2.0%
Cc1cc(-c2csc(N)n2)c(C)n1CCc1ccccc1,15.8µM*
CCCNC(=O)OC[C@@H]1O[C@H](CCO/N=C(\C)CCN2CCCCc3nc(C)c(C)cc32)C=C[C@@H]1Oc1ccc(OC)cc1,6.0%[11.4 µM]
Cc1ccc(C)c(NS(=O)(=O)c2ccc(OCC(=O)N3CCOCC3)cc2)c1,-8.2%
O=C(NCCN1CCCC1)c1ccc(-n2c(=O)c(=O)[nH]c3ccccc32)cc1,-0.4%
COc1cccc(Cn2nnc(C(=O)NCc3ccc(F)cc3)c2N)c1,5.4%
COc1ccc(C2N(c3cccc(Cl)c3)C(=O)C3CCCN32)cc1 (centres undefined),1.7%
Cc1cc(C(=O)Nc2sc3c(c2C#N)CCCCC3)cs1,?
CCCCCCCC/C=C\CCCCCCCC(=O)NCc1ccc(O)c(OC)c1,-20.1%
CC1CCN(C(=O)C2CCCN(S(C)(=O)=O)C2)CC1 (centres undefined),8.7%
CCOC(=O)C(CCSC)NC(=O)CN (centres undefined),-3.4%
CCN1CCCCC(=N/O)/C(=N/O)CCCC1,3.0%[11.4 µM]
Nc1cc(C(F)(F)F)ccc1C(=O)O,31.6µM*
CC(C)(C)c1ccc(S(=O)(=O)N2CCCCC2C(=O)NCc2ccccn2)cc1 (centres undefined),3.9%
Cc1ccc2c(c1)NC(=O)C(CC(=O)NCCN(C)C)O2 (centres undefined),-4.1%
Cn1c(SCC(=O)c2ccc3c(c2)OCO3)nnc1-c1ccccn1,-2.6%
CC(C)n1nnnc1SCC(=O)Nc1ccccc1N1CCOCC1,9.3%
CCCc1nc2ccccc2c2nc(N)nn12,?
COc1cc(Nc2cc(C)nc3nc(C)nn23)cc(OC)c1OC,4.6%
Cc1ccc(S(=O)(=O)N2CCN(C(=O)c3c(C)nn(-c4ccccc4)c3Cl)CC2)cc1,-11.4%
C=CCn1c(Cc2ccc(OCC)cc2)nnc1SCC(N)=O,-1.4%
O=C(O)C1CCC(CNc2c(NC3CCCCC3)c(=O)c2=O)CC1 (centres undefined),-3.1%

# 16 consecutive entries already listed:
SMILES,HSD17B inhib
O=C(CCN1CCOCC1)Nc1c(-c2ccccc2)c2cc(Br)ccc2[nH]c1=O,2.0%
COc1ccc(C2CC(c3ccc(Cl)cc3Cl)n3nc(N)nc3N2)cc1 (centres undefined),1.2%
CCCC(=O)Nc1ccc2c(c1)nc1n2CCSC1,-11.2%
Cc1cc(C)nc(-n2nc(C)cc2NC(=O)c2ccc(Br)o2)n1,2.0%
Cc1cc(-c2csc(N)n2)c(C)n1CCc1ccccc1,15.8µM*
CCCNC(=O)OC[C@@H]1O[C@H](CCO/N=C(\C)CCN2CCCCc3nc(C)c(C)cc32)C=C[C@@H]1Oc1ccc(OC)cc1,6.0%[11.4 µM]
Cc1ccc(C)c(NS(=O)(=O)c2ccc(OCC(=O)N3CCOCC3)cc2)c1,-8.2%
O=C(NCCN1CCCC1)c1ccc(-n2c(=O)c(=O)[nH]c3ccccc32)cc1,-0.4%
COc1cccc(Cn2nnc(C(=O)NCc3ccc(F)cc3)c2N)c1,5.4%
COc1ccc(C2N(c3cccc(Cl)c3)C(=O)C3CCCN32)cc1 (centres undefined),1.7%
Cc1cc(C(=O)Nc2sc3c(c2C#N)CCCCC3)cs1,?
CCCCCCCC/C=C\CCCCCCCC(=O)NCc1ccc(O)c(OC)c1,-20.1%
CC1CCN(C(=O)C2CCCN(S(C)(=O)=O)C2)CC1 (centres undefined),8.7%
CCOC(=O)C(CCSC)NC(=O)CN (centres undefined),-3.4%
CCN1CCCCC(=N/O)/C(=N/O)CCCC1,3.0%[11.4 µM]
Nc1cc(C(F)(F)F)ccc1C(=O)O,31.6µM*

# Later entries:
SMILES,HSD17B inhib
CCOc1ccc(-n2nc(C(=O)N3CCOCC3)c3ccccc3c2=O)cc1,-6.2%
CCOC(=O)C1=C(C)NC(=O)C1(NC(=O)c1cccnc1)C(F)(F)F (centres undefined),0.4%
COc1ccc(-c2cc(C(F)(F)F)nc(SCC(=O)N3CC(C)OC(C)C3)n2)cc1OC (centres undefined),5.01µM*
Cc1ccc(C(c2nnnn2C(C)(C)C)N2CCc3ccccc3C2)cc1 (centres undefined),14.9%
CCOC(=O)C1CCN(C(=O)Nc2ccc(OC)c(OC)c2)CC1,22.1%
CCc1cc2c(SCC(=O)c3cccs3)ncnc2s1,-26.6%
CCn1c(C(=O)OC)cc2c1ccn2-c1ccc(F)cc1,?
Cc1cc2c(=O)n(CC(=O)NCC(=O)N3CCN(Cc4ccccc4)CC3)cnc2s1,0.2%
Cc1ccsc1C(=O)Nc1ccc(C(=O)O)cc1,-3.4%
CCC1=C2CC[C@H]3C(=O)N(CC(=O)OC)C(=O)[C@H]3[C@H]2[C@@]2(C)C(=NCC(=O)OC)OC(=O)N2C1=O,9.9%
CCc1ccc(NC(=O)CN(c2ccc3c(c2)OCO3)S(=O)(=O)c2c(C)noc2C)cc1,7.8%
CCOc1ccccc1Oc1c(C)oc2c(CN3CCN(CCO)CC3)c(O)ccc2c1=O,31.6µM*
O=C(NCc1ccccn1)c1ccc(/C=N/O)nc1,-4.9%
O=C(COC(=O)c1ccccc1Oc1ccccc1)NCc1ccco1,15.8µM*
C=C(C)C1CC=C(C)C(OC(C)=O)C1 (centres undefined),-5.8%
COCc1nc2ccccc2n1Cc1ccccc1,14.6%
Cn1c(N)c(C(=O)COC(=O)CCC(=O)c2cccs2)c(=O)n(C)c1=O,7.0%
O=C(CN1CCC(c2nc3ccccc3[nH]2)CC1)NCc1ccc2c(c1)OCO2,-0.7%
COc1ccc(CCN2C(=O)C(O)=C(C(=O)c3ccco3)C2c2cccs2)cc1OC (centres undefined),9.8%
CC(C)Cn1cc(C(=O)NCC2CCCO2)c2c3ccccc3n(C)c2c1=O (centres undefined),31.6µM*
CS(=O)(=O)N1CCC[C@@]2(CCN(C(c3ccccc3)c3ccccc3)C2)C1,-1.1%
CCCN(Cc1ccccc1)S(=O)(=O)c1ccc(N2C(=O)CCC2=O)cc1,-0.4%
O=c1c(CN2CCN(Cc3ccccc3)CC2)coc2ccc(Cl)cc12,?
Cc1cc(C(=O)NCc2ccc3c(c2)OCO3)n(-c2ccccc2)n1,-1.7%
CCN(CC)S(=O)(=O)c1ccc2oc(SCc3ccc(F)cc3)nc2c1,-7.8%
# (list continues)
SMILES,HSD17B inhib
COc1ccc(NC(=O)N2CCC3(CC2)CCN(C(=O)c2cc(C(F)(F)F)cc(C(F)(F)F)c2)CC3)cc1,8.5%
Cc1oc(-c2ccccc2F)nc1CS(=O)(=O)CC(=O)NCc1ccco1,-2.6%
Cc1cc2c3c(c1)C1(C(=O)N3C(C)(C)CC2C)C(C#N)=C(N)Oc2cc(O)ccc21 (centres undefined),-4.0%
Cc1cccc(CS(=O)(=O)Cc2ccc(C(=O)NCCCN3CCOCC3)o2)c1,8.4%
CCOCc1cc(C)[nH]c(=O)c1C#N,25.1µM*
O=C(CCn1c(=O)oc2ccccc21)N1CCN(C(c2ccccc2)c2ccccc2)CC1,6.4%
O=C(NC(Cc1ccccc1)C(=O)O)OCc1ccccc1 (centres undefined),1.1%
CCn1c(Cn2nnc(-c3ccccc3)n2)nnc1SCC(=O)Nc1ccc(N(C)C)cc1,-1.7%
Cn1c(=O)[nH]c(=O)c2c1nc(CN(Cc1ccccc1)Cc1ccccc1)n2CCN1CCOCC1,1.7%
COc1ccc(Oc2cn[nH]c2-c2ccc(O)cc2O)cc1,8.3%
CC(C)NC(=O)N1CC2(CCN(C(=O)c3cccn3C)CC2)C1,8.4%
COc1ccc(CCNC(=O)C2CCN(Cc3nc(-c4cccc(Cl)c4)oc3C)CC2)cc1OC,10.1%
O=C(CC(=O)N1CCN(c2ccccn2)CC1)Nc1ccc2nc3n(c(=O)c2c1)CCCCC3,?
COC(=O)CNC(=O)C1CCN(c2nc(C)cc(C)n2)CC1,31.6µM*
CCOc1ccc(C2CC(c3cccc(OC)c3)Nc3ncnn32)cc1 (centres undefined),7.4%
O=C(O)C1C2C=CC3(O2)C1C(=O)N1c2ccccc2C2OCCC2C13 (centres undefined),-10.1%
CCOc1ccc(NC2=NCCC(=O)N2Cc2cccs2)cc1,-4.8%
CC(=O)c1ccc(NC(=O)C2CC(c3ccc(F)cc3)=NO2)cc1 (centres undefined),3.6%
C/C(CC/C(C)=N/O)=N/O,-2.1%[11.4 µM]
O=C(O)c1cc(NCc2ccc3c(c2)OCO3)ccc1N1CCOCC1,20µM*
CC(CN(C)C)CN1c2ccccc2CCc2ccccc21 (centres undefined),-1.9%
CC1CCC(NC(=O)c2ccc(CS(=O)(=O)Cc3ccccc3F)o2)CC1 (centres undefined),-22.3%
O=C(CCN1C(=O)c2ccncc2C1=O)NCc1ccc(Cl)cc1,13.7%
Cc1nc2sc(C(c3cccs3)N3CC(C)CC(C)C3)c(O)n2n1 (centres undefined),7.5%
CCCS(=O)(=O)N1CCN(C(=O)c2ccco2)CC1,-1.6%
# Going on with the list:
SMILES,HSD17B inhib
C/C=C/c1ccc(Oc2nnnn2-c2ccc(C(N)=O)cc2)c(OC)c1,18.4%
O=C(CSc1nc(-c2ccccc2)cs1)NC(=O)NCc1ccco1,-10.4%
CCn1cc(C(=O)Nc2cccc(NC(C)=O)c2)c2cc(OC)c(OC)cc2c1=O,-0.8%
COc1ccc(C(=O)N2CCC3(CCN(Cc4ccncc4)CC3)CC2)cc1,4.9%
OC(CN1CCN(c2ccccn2)CC1)Cn1c2ccccc2c2ccccc21 (centres undefined),?
Cc1ccccc1-c1nc(CN2CCC(C(=O)NCCC3=CCCCC3)CC2)c(C)o1,0.7%
CN1CCN(C(=O)c2ccc3c(c2)N(Cc2ccc(Cl)cc2)C(=O)c2ccccc2S3=O)CC1 (centres undefined),1.8%
Cc1ccsc1C=Nc1ccc(O)cc1,?
CNC(=O)[C@@H]1O[C@@H](n2cnc3c(NCc4cccc(I)c4)ncnc32)[C@H](O)[C@@H]1O,4.2%
Cc1nnc(NC2=NCCC2)s1,-5.2%
Cc1noc(C)c1S(=O)(=O)N(CC(=O)N1CCn2c1nc1ccccc12)c1ccc(C(C)C)cc1,1.8%
O=C(c1cnccn1)N1CCC2(CC1)CN(c1ccccn1)C2,-12.0%
CCCc1cc(C(=O)Nc2sc3c(c2C(=O)OCC)CCCC3)no1,-18.3%
CC1(C)OC(C(O)(c2cccc3c2oc2ccccc23)c2cccc3c2oc2ccccc23)C(C(O)(c2cccc3c2oc2ccccc23)c2cccc3c2oc2ccccc23)O1 (centres undefined),-1.5%[11.4 µM]
CCc1ccccc1N1C[C@@]23C=C[C@@H](O2)C(C(=O)OCC(C)C)[C@H]3C1=O (some centres undefined),3.4%
Cc1c(N=C/C=C/c2ccccc2)c(=O)n(-c2ccccc2)n1C,-5.2%
COC(=O)c1[nH]c(C)c(/C(O)=C2\C(=O)C(=O)N(CCN(C)C)C2c2cccc(OC)c2OC)c1C (centres undefined),-1.6%
O=C(CCn1c(=S)[nH]c2cc3c(cc2c1=O)OCO3)N1CCN(C2CCCCC2)CC1,11.3%
CCOC(=O)C1C(=O)CC(C)(O)C(C(=O)OCC)C1c1ccco1 (centres undefined),6.0%
